# CtBP-E1A blk: inhibitors of CtBP/E1A interaction; AlphaScreen GST-E1A/His-CtBP binding, 1536-well; stronger effect = lower value; control for the full effect not named in the record; activity change, % (no concentration beside the values); 0.49% of 340,000 active; AID 651724; in the data active means activity change below about -65%; inconclusive means about -30% to -65%; inactive means above about -30%; note: % is set by controls: 0 for no effect and ±100 for the full control effect; compound concentration not given in the record
#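 GST-E1A and His-tagged CtBP (125 nM each as 5X stock) were preincubated with pin-transferred compound for 2 h at 37 °C in the dark, then glutathione donor and nickel acceptor beads were added for 1 h before AlphaScreen reading.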
# TRPML1 ag: activates the human TRPML1 channel; TRPML1-expressing cells, Ca2+ dye fluorescence, FDSS; host cell line not named in the record; reference of the full effect not given here; activation, % (concentration not given with the values); AID 624414; 0.12% of 410,000 active; Q9GZU1; in the data active = activation above about 50%; inconclusive = about 30% to 50%; inactive = below about 30%; note: 0% is about no effect; the text of the record puts the active cut at 80%
#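 Agonist activity was taken from a 110 s kinetic Ca2+ dye read on the FDSS after pinning compounds onto TRPML1-DL cells. The cells were seeded at 1,500/well with Tet inducer, incubated about 16 h, then dye-loaded at room temperature.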
# PINK1 modulator: PINK1 expression modulation | PINK1 immunofluorescence, high-content cytometry, 24 h | Potency, µM (series often up to 76.6 µM), for inactives: at the top dose activation (PINK1 increase), hits mostly activators | 0.2% of 410,000 active; active = well fitted activation curve with a large enough effect; inconclusive = small, poorly fitted or top-dose-only effect; inactive = flat fitted curve, though single readings scatter; cell line not stated here;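 note: potency is the fitted concentration of half-maximal effect; % of control where 0% means no effect; nearly all actives have a fitted effect of over 65% in size; a mitochondrial uncoupler was the plate control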
#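 Fluorescence from anti-PINK1 antibody, together with nuclear and cell stains, was scanned on a laser-scanning cytometer. Before staining, stable-line cells were incubated 24 hours with compounds at 5 concentrations; primary antibody 12 h at 10 degrees C.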
# D2 potentiator: positive allosteric modulators of human D2 dopamine receptor; AID 624464; 0.23% of 360,000 active; DiscoveRx D2 beta-arrestin cells, luminescence, 90 min; 100% = 57 uM dopamine signal; potentiation, % (no concentration beside the values); P14416; active = potentiation of 50% or more; inconclusive = 30% to 50%; inactive = 30% or less;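 note: compound concentration not given in the record; tested on top of an EC20 dose of dopamine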
#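 PathHunter D2 cells, attached overnight at 37 deg C, received compound in DMSO plus dopamine at EC20 (50 nM final) for 90 min at 37 deg C. Beta-arrestin recruitment was read as luminescence after 1 h with detection reagent at ambient temperature.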
# D2 agonist: human D2 receptor agonism in beta-arrestin assay; DiscoveRx PathHunter D2 beta-arrestin, luminescence, 90 min; 100% = 57 uM dopamine signal; activation, % (concentration not given with the values); 0.084% of 360,000 active; AID 624465; in the data active = activation above about 40%; inconclusive = about 15% to 40%; inactive = below about 15%; note: compound concentration not given in the record; the text of the record calls up to 30% inactive
#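 Agonist mode: compounds alone added to overnight-plated D2 PathHunter cells for 90 min at 37 C, with 57 uM final dopamine (EC100) defining full response. Beta-arrestin recruitment detected by chemiluminescent reagent, read after 1 h at ambient temperature.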
# Six1-Eya2 inh: blocks human Six1 binding to Eya2; activity change, % (concentration not given with the values); AlphaScreen GST-Six1/His-Eya2 binding, biochemical; stronger effect = lower value; control for the full effect not named in the record; Q15475+O00167; 0.56% of 360,000 active; AID 651725; in the data active = activity change below about -65%; inconclusive = about -30% to -65%; inactive = above about -30%; note: % is set by controls: 0 for no effect and ±100 for the full control effect
# Target sequence (O00167 whole entry, looked up): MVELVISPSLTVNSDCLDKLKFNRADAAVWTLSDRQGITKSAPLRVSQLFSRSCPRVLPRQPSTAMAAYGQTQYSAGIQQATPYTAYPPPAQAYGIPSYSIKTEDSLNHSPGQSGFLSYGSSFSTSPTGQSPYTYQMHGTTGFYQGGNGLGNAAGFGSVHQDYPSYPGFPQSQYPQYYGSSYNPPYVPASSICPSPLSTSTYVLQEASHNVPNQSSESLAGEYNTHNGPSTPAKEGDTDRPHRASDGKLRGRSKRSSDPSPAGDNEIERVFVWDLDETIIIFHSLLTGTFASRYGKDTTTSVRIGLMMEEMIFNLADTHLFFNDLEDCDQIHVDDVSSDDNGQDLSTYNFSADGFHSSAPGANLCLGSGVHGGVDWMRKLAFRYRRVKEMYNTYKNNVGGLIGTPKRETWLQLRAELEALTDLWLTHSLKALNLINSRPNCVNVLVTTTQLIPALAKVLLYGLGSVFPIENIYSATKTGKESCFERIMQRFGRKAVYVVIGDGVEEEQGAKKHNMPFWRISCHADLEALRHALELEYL
# Target sequence (Q15475 whole entry, looked up): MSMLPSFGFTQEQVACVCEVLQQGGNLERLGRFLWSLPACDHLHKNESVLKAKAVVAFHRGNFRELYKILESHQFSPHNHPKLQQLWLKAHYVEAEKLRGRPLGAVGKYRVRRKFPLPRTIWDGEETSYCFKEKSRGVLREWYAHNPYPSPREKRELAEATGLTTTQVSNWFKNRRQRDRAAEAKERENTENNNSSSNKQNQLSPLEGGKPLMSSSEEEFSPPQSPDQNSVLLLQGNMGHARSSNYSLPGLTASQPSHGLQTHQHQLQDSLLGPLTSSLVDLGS
#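 AlphaScreen with GST-Six1 and His-Eya2 (5X mix: 250 nM and 500 nM), glutathione donor and nickel acceptor beads; buffer 50 mM Tris pH 8.0, 300 mM NaCl, 1 mM TCEP; 1 h at 37 C in the dark.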
# Active calls of the source: *; . = not tested or not shown; & = joins results of further samples; [ ] = remark or other dose.
SMILES,CtBP-E1A blk,TRPML1 ag,PINK1 modulator,D2 potentiator,D2 agonist,Six1-Eya2 inh
COc1cc(CCC(=O)OCC(=O)Nc2ccc(C(N)=O)cc2)cc(OC)c1OC,-4,0.8,-0.9%,7,6.3,-7
CN(C)S(=O)(=O)c1ccc(S(=O)(=O)N2CCN(CCC#N)CC2)cc1,1,0.8,-2.5%,-3,0.4,0
COc1ccc(-c2cc(=O)oc3cc(OC(=O)C4CCCCC4)ccc23)cc1,.,1.7,-0.9%,-3,-4.5,-1
COc1ccc(OC)c(/C=N/NC(=O)c2cc3c(OC)cc(OC)cc3[nH]2)c1,0,2.0,-1.6%,13,-1.7,-11
CC(C)C(NC(=O)OC(C)(C)C)C(=O)N1CCCC1C(=O)NC(Cc1ccccc1)C(N)=O (stereo not given),-5,-0.3,-1.7%,-17,0.4,3
c1ccc(-c2cc(-c3nc(-c4ccccn4)no3)c3ccccc3n2)cc1,0,-0.1,11%,-3,0.9,7
COc1ccc(C(=O)/C=C/c2ccsc2)cc1CSCC(=O)O,2,-0.4,-2.9%,11,1.3,-3
Cc1cccc(NC(=O)CSc2ccc(-c3cccnc3)nn2)c1,-2,0.5,0.0%,25,3.3,-15
CC1(C)CC(=O)c2cnc(NC(=O)C3CCCC3)nc2C1,-1,0.0,-0.2%[38.3 µM],-15,0.8,0
O=C(NCC1CCCO1)/C(=C\c1ccco1)NC(=O)c1ccccc1 (stereo not given),-1,1.5,-0.5%,-4,-2.9,0
Cc1onc(-c2ccccc2)c1C(=O)N1CCN(S(=O)(=O)c2ccc(Cl)cc2)CC1,6,-0.5,-2.2%,-2,-0.4,-1
C[C@@H]1CN([C@@H](C)CO)C(=O)CCCn2nncc2CO[C@@H]1CN(C)C(=O)Nc1cccc(C(F)(F)F)c1,6,-0.4,3.8%,6,0.8,4
CN(C)c1ccnc(Nc2ccccc2)c1C#N,6,-0.3,1.6%,-4,-5.2,5
O=C(NCCCN1CCOCC1)C1Cc2c(ccc3ccccc23)O1 (stereo not given),-15,-0.7,-1.2%,-17,-2.5,17
O=C(CN(c1ccc(Cl)c(Cl)c1)S(=O)(=O)c1ccccc1)N1CCc2ccccc2C1,-3,1.0,1.8%,-10,-3.3,-8

# Gathered by group, those above with two or more sulfur atoms.
SMILES,CtBP-E1A blk,TRPML1 ag,PINK1 modulator,D2 potentiator,D2 agonist,Six1-Eya2 inh
CN(C)S(=O)(=O)c1ccc(S(=O)(=O)N2CCN(CCC#N)CC2)cc1,1,0.8,-2.5%,-3,0.4,0
COc1ccc(C(=O)/C=C/c2ccsc2)cc1CSCC(=O)O,2,-0.4,-2.9%,11,1.3,-3

# Some of the entries so far, as labelled records.
O=C(NCC1CCCO1)/C(=C\c1ccco1)NC(=O)c1ccccc1 (stereo not given)
  CtBP-E1A blk = -1	TRPML1 ag = 1.5	PINK1 modulator = -0.5%	D2 potentiator = -4	D2 agonist = -2.9	Six1-Eya2 inh = 0
Cc1onc(-c2ccccc2)c1C(=O)N1CCN(S(=O)(=O)c2ccc(Cl)cc2)CC1
  CtBP-E1A blk = 6	TRPML1 ag = -0.5	PINK1 modulator = -2.2%	D2 potentiator = -2	D2 agonist = -0.4	Six1-Eya2 inh = -1

# Later entries
SMILES,CtBP-E1A blk,TRPML1 ag,PINK1 modulator,D2 potentiator,D2 agonist,Six1-Eya2 inh
N#Cc1ccccc1OCC(=O)OCC(=O)Nc1ccc2c(c1)OCO2,0,-0.1,0.7%,-3,-0.1,-3
COc1cccc(C(=O)CN(C(=O)c2ccc(Cl)cc2Cl)N2C(=O)c3ccccc3C2=O)c1,3,0.0,0.5%,-19,-5.4,-2
CCOC(=O)c1ccccc1NC(=O)CSc1nccn1C,-1,0.8,-1.2%,-21,-2.0,-7
CCCCN(C(=O)c1ccc(S(=O)(=O)N2CCCCC2)cc1)C1CCS(=O)(=O)C1 (stereo not given),-28,0.3,1.0%,3,1.5,-4
C=CC[C@H](CC(=O)N(CCO)Cc1ccccc1)C(=O)N[C@H](COC(=O)[C@@H](CC=C)CC(=O)OC(C)(C)C)c1ccccc1,-1,1.5,1.7%,5,3.0,-4
CCOc1ccc(Cl)cc1-c1cc(C(=O)Nc2ccc(OC)nc2)[nH]n1,2,-0.3,0.9%,-10,4.5,1
Cc1cccc(OCC(=O)OCC(=O)N(CC(C)C)c2c(N)n(Cc3ccccc3)c(=O)[nH]c2=O)c1C,0,0.6,7.9%,-32,-6.0,24
C[C@H](CO)N1C[C@H](C)[C@@H](CN(C)C(=O)Nc2ccc(C(F)(F)F)cc2)Oc2ccc(NC(=O)Cc3ccccc3)cc2C1=O,-1,0.0,0.3%,-3,-0.8,-4
O=C1CN(C(=O)COC(=O)c2cccc(S(=O)(=O)NCc3ccccc3)c2)c2ccccc2N1,-2,-0.8,-1.2%,-15,-0.1,-1
COC(=O)c1ccc(CN2C(=O)C(C)N(C(=O)c3c(F)cccc3F)c3ccccc32)cc1 (stereo not given),-4,2.8,0.6%,-2,-0.1,-2
CCN(CC)C(=O)Oc1ccc2c(=O)c(-c3ccccc3)coc2c1,10,1.2,-3.2%[38.3 µM],-3,-0.5,5
Cc1cc(=O)n2nc(N3CCCC3C(=O)NCCCN3CCCCC3)sc2n1 (stereo not given),5,-0.2,0.0%,-18,1.0,5
COc1cc(C(=O)ONC(=O)c2ccc(OC(F)F)cc2)cc(OC)c1OC,4,1.5,7.6%,28,9.1,-6
CC(C)c1ccc(NC(=O)c2ccc(Br)o2)cc1,5,-0.5,2.5%,-11,-2.1,2
NC(=O)c1ccc(NC(=O)COC(=O)c2ccc3c(c2)OCO3)cc1,.,0.6,6.9%,-4,-0.6,4
CCn1ccnc1CN(C)Cc1cn(-c2ccc(C)cc2)nc1-c1ccc(F)cc1,.,1.0,7.5%,-14,-6.6,-3
Cc1cccc(N(C(=O)c2snc(C(N)=O)c2N)C(C(=O)NCC2CCCO2)c2c[nH]c3ccccc23)c1 (stereo not given),-8,1.0,1.4%,-4,0.8,1
O=C(NC(=S)N1CCCc2ccccc21)c1ccco1,-4,-0.6,1.8%,-6,-2.7,-7
CNc1cncc(-c2cc(OC)ccc2OC)n1,-21,-0.9,-0.1%,-4,-5.5,-18
COc1ccc(C2CC(c3ccccc3)Nc3ncnn32)cc1 (stereo not given),3,1.2,0.2%,-4,-4.2,6
COc1cccc(C(c2nnnn2Cc2ccccc2)N2CCN(C(=O)c3ccco3)CC2)c1OC (stereo not given),-4,0.7,-0.9%,-5,-4.1,-1
COc1ccc(-c2cc3cc(C(=O)O)ccn3c2C(=O)c2ccccc2)cc1,24,1.8,0.3%,-12,-1.6,12
CCS(=O)(=O)N1CCN(C(=O)CC(C)C)CC1,0,1.2,0.1%,5,1.8,-4
COc1cc(NC(=O)COC(=O)c2cc(S(=O)(=O)N3CCCCC3)ccc2Cl)c(C)cc1[N+](=O)[O-],12,0.5,0.7%,-10,-3.6,-4
COc1ccc(NC(=O)CN(C)S(=O)(=O)c2ccccc2)cc1OC,4,0.5,-0.1%[38.3 µM],2,-3.5,1
NNC(=O)CNC(c1ccccc1)c1cc(Br)ccc1NC(=O)c1ccccc1Br (stereo not given),1,0.6,3.0%,-15,-0.2,-2
CC(NC(=O)COC(=O)CCc1nc2ccccc2c(=O)[nH]1)c1ccccc1 (stereo not given),0,-0.8,1.1%,0,-5.1,-2
O=C(c1ccc(-c2ccccc2)c(F)c1)C1CCCN(CCCn2cccn2)C1 (stereo not given),-11,-0.1,6.9%,-23,0.6,5
C[C@@]12C(=O)Nc3ccc(F)cc3C(=O)N1[C@H]1c3cc(Br)ccc3OC[C@@H]1[C@@H]2c1ccccc1,-10,1.4,3.6%,-15,-4.2,-5
Cc1ccc2cc(COC(=O)c3ccco3)c(=O)[nH]c2c1,-4,-1.5,0.2%,-15,-1.1,-1
CCCS(=O)(=O)N1CCCC(C(=O)NCCc2ccc(OC)c(OC)c2)C1 (stereo not given),6,-0.6,2.1%,-15,-1.9,-1
CCc1ccc(NC(=O)CC2C(=O)N(c3ccc(C)cc3)C(=O)N2CCc2ccncc2)cc1 (stereo not given),2,-0.4&-0.4,2.1%&0.1%,-9,-2.1,1
O=C(CN1CCN(S(=O)(=O)/C=C/c2ccccc2)CC1)Nc1ccccc1N1CCOCC1,-1,0.1,-0.6%,-3,0.4,-1
O=C1OC(Oc2ccccc2)(c2ccccc2)c2ccccc21 (stereo not given),-2,4.8,5.7%[38.3 µM],-25,-1.9,12
Cc1cc(C)c[n+](CC(=O)c2ccc(C)c([N+](=O)[O-])c2)c1,-16,0.0,-0.5%,-5,-6.9,3
COc1ccc([N+](=O)[O-])cc1NC(=O)c1cc(C)c(C)o1,.,0.2,-1.8%,-10,3.1,10
COc1ccc(OC)c(-c2oc3ccccc3c(=O)c2O)c1,1,-0.1,3.5%,-7,-0.9,7
COc1cccc(NC(=O)CN2C(=O)COc3ccc(S(=O)(=O)N4CCOCC4)cc32)c1,.,1.0&4.0,2.6%&1.0%,-3,-4.4,5
COCCCn1nnnc1SCC(=O)N1CCCC1,2,-0.2,-0.4%,-19,-2.4,0
CCC(C)[C@H](NC(=O)NC1CCCc2ccccc21)C(=O)OC (stereo not given in full),6,0.0,1.4%,2,-3.5,4
Nc1ccc(C(=O)N/N=C/c2cn(Cc3cccc(F)c3)c3ccccc23)cc1,-1,-1.0,-1.1%,-25,2.8,-15
O/N=C(\COc1ccccc1O)c1ccccc1,3,0.7,10%[38.3 µM],5,-0.5,2
CC(C)=C(C)c1cc2nc(NCCCN(C)C)n(C)c(=O)c2s1,-3,-0.2,1.4%,-1,1.3,-3
CN=C(Nc1ccc(Br)cc1)SC1CC(=O)N(c2ccc(OC)cc2)C1=O (stereo not given),-5,-0.2,2.3%,-2,-0.8,0
O=C(c1ccc2c(=O)n(-c3ccccc3)c(=O)[nH]c2c1)N1CCCCC1,6,0.0,.,2,-0.2,-1
Cc1ccc(S(=O)(=O)N2CCN(C(=O)Cc3ccccc3)CC2)cc1,3,0.6,.,-8,-1.7,-1
C#CCOCCOCCOCCNc1nc(N2CCN(C(=O)C([C@@H](C)O)n3cc([C@@H](N)CCCCN)nn3)CC2)nc(N2CCN(C(=O)[C@H](CC(N)=O)n3cc([C@@H](N)C(C)C)nn3)CC2)n1 (stereo not given in full),-6,0.6,-0.3%,.,-0.4,-1
O=C(Nc1ccc(F)c(Cl)c1)c1cc(C2CCCN(S(=O)(=O)c3cccc4cccnc34)C2)on1 (stereo not given),0,2.3,1.6%,2,7.0,-4
CN(Cc1cccs1)C(=O)C1CC(=O)N(Cc2ccccc2)C1 (stereo not given),2,-0.3,-1.9%,-14,-5.4,2
Cc1cc(C)n(-c2nc3ccccc3nc2N2CCN(S(=O)(=O)c3cccc(C#N)c3)CC2)n1,15,1.3,2.7%,-3,3.9,2
CN1CC2([N+](=O)[O-])CC=C(Oc3ccccc3)C([N+](=O)[O-])(C1)C2 (stereo not given),4,0.1,2.9%,-10,-1.0,-3

# Source: PubChem BioAssay
